# USP2a inhib: inhibitors of human ubiquitin-specific protease USP2a. AID 927. USP2a enzymatic assay, qHTS inhibition. Potency, µM (series often up to 38.3 µM), inactives show at the highest dose activity change, negative = inhibition, actives largely listed as inhibitors. actives 0.1% (n = 60,000);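 note: potency is the fitted concentration of half-maximal effect; nearly all actives have a fitted effect of over 60% in size; plate controls were DMSO for no effect and NEM full inhibition control for full effect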
#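 USP2 core (20nM final) preincubated 30 min RT with compound, then Ub-PLA2 20nM and NBD C6-HPC 20uM final added; buffer 20mM Tris-HCl pH 8.0, 2mM CaCl2. Fluorescence Ex 460/Em 535 read at 0 and 2.5 h; normalized to NEM.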
# Casp1 inh: blocks human caspase-1 allosterically or competitively; Potency, µM (titrated, usually from 57.5 µM), for inactives: at the top dose activity change, negative = inhibition, actives largely listed as inhibitors; actives 0.03% (n = 75,000); AID 900; P29466; Caspase-1 enzyme, Ac-WEHD-AFC fluorogenic rate;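 note: potency is the fitted concentration of half-maximal effect; plate controls were vehicle for no effect and no substrate for full effect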
# Target sequence (P29466 120-297 limits assumed): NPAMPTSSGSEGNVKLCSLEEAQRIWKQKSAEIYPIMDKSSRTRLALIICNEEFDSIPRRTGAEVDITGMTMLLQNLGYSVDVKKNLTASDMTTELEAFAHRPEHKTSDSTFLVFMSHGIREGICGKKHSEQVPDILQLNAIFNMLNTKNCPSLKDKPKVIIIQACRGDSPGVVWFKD
# Target sequence (P29466 317-404 limits assumed): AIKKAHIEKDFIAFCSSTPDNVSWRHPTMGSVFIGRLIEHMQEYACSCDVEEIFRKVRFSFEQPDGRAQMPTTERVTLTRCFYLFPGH
# Fluorescein autfl: compound autofluorescence in fluorescein spectral region; actives 0.91% (n = 59,000); AID 593; max fluorescein-equivalent concentration, M; Compound autofluorescence, 480/540 nm, fluorescein-equivalent; stronger effect = higher value; in the data active = max fluorescein-equivalent concentration above about 10 nM; inconclusive = between about 1.1 nM and that limit
#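 Library compounds, added at multiple concentrations to pH 8.0 Tris buffer (100 mM), incubate 15 min at room temperature before CCD imaging at 480 nm excitation and 540 nm emission.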
# TexasRed autofl: compound fluoresces in the Texas Red spectral region. max dye-equivalent concentration, M. Compound fluorescence, Texas Red channel, 547/618 nm; stronger effect = higher value. actives 0.06% (n = 59,000); in the data active = max dye-equivalent concentration above about 10 nM; inconclusive = between about 1.1 nM and that limit
#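 Fluorescence at ex 547/em 618 nm, normalized against an on-plate Texas Red standard series to give dye-equivalent concentration per compound concentration. Buffer 100 mM Tris, pH 8.0; 15 min RT incubation before CCD imaging.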
# Rhodamine autofl: compound autofluorescence in rhodamine spectral region. actives 0.05% (n = 59,000). max dye-equivalent concentration, M. Rhodamine-region fluorescence, 547/598 nm, Tris buffer; stronger effect = higher value; in the data active = max dye-equivalent concentration above about 11 nM; inconclusive = between about 1.1 nM and that limit
#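 Intensities are converted to rhodamine-equivalent concentration using a six-point rhodamine standard on each plate. Compounds sit 15 min at room temperature in 100 mM Tris buffer, pH 8.0; read uses the 547/598 nm excitation/emission pair.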
# Caspase-7 inhib: allosteric or competitive inhibitors of human caspase-7. P55210. recombinant caspase-7, Ac-DEVD-AFC fluorescence rate. Potency, µM (titrated, usually from 57.5 µM), for the others: top-dose activity change, negative = inhibition, actives largely listed as inhibitors. actives 0.02% (n = 75,000). AID 889; active = well fitted inhibition curve with a large enough effect in the main read-out, with a control signal flat, not every such curve was filed as active; inconclusive = small, poorly fitted or top-dose-only effect, or a change in a side signal; note: potency is the fitted concentration of half-maximal effect; % of control where 0% means no effect
# Target sequence (P55210 24-198 limits assumed): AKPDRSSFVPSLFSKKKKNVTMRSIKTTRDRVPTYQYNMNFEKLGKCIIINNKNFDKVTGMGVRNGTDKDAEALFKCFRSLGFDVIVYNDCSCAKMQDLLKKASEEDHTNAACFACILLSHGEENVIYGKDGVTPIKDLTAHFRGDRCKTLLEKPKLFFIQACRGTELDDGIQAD
# Target sequence (P55210 207-303 limits assumed): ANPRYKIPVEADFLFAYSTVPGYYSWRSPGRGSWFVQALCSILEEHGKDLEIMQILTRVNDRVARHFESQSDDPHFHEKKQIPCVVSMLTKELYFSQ
# BRCT inh red: inhibitors of human BRCA1 BRCT-phosphoprotein interaction (red fluorophore) | P38398 | BRCT-phosphopeptide binding, red fluorescence polarization | Potency, µM (doses to about 76.9 µM), without a hit: at the highest dose activity change, negative = inhibition, most hits filed as inhibitors | actives 0.03% (n = 75,000); note: % is set by controls: 0 for no effect and ±100 for the full control effect
#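 Rhodamine-labelled pBACH1 10-mer (100 nM) bound to BRCT domain (100 nM) at pH 7.3; compounds incubated 12 min room temperature, polarization read. Free peptide defines full inhibition; unlabelled decapeptide titrated as control.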
# BRCT PPI green: blocks human BRCA1 BRCT binding to phosphopeptide, green readout. BRCA1 BRCT-phosphopeptide binding, green fluorescence polarization. Potency, µM (top dose mostly 76.9 µM), for inactives: at the top dose activity change, negative = inhibition, most hits filed as inhibitors. actives 0.05% (n = 75,000). AID 875;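 note: potency is the fitted concentration of half-maximal effect; plate controls were peptide without protein for full effect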
#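 Fluorescence polarization: His-tagged BRCT (~35 kDa BRCA1 C-terminus, 250 nM) bound to 100 nM fluorescein-labeled phosphorylated 10-aa BACH1 peptide, pH 7.3 phosphate buffer with DTT and Tween 20. Compounds incubated 12 min at room temperature; inhibition read as lowered polarization.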
# Starred values were filed as active, the others as inactive; i = inactive; ? = inconclusive; nt = no result given; & = joins results of further samples; [ ] = dose if it differs, or a comment. Unless noted, calls come from the whole dose curve; as a rule, active = well fitted curve in the direction sought with a large enough effect; inconclusive = small, poorly fitted or top-dose-only effect, or another doubt; inactive = no such curve, though single readings can be large; an effect the other way counts as inactive or inconclusive. The list is partial; the hit share may differ from the screen's.
mol	USP2a inhib	Casp1 inh	Fluorescein autfl	TexasRed autofl	Rhodamine autofl	Caspase-7 inhib	BRCT inh red	BRCT PPI green
CCOC(=O)C(NC(=O)CC)(Nc1sc2c(c1C(=O)OC)CCN(C)C2)C(F)(F)F (stereo unspecified)	11%	-18%	i	i	i	-14%	0.0%	-2.5%
COCCN(CCOC)C(=O)c1c[nH]c2ccc(S(=O)(=O)N(C)c3ccc(F)cc3)cc2c1=O	17%	-2%	?	i	i	0%	0.3%	-0.9%
CC1(C)CC2CC(C)(CN2C(=O)COC(=O)c2ccc(Cl)cc2N)C1 (stereo unspecified)	12%	-2%	i	?	i	5%	-0.2%	-1.3%
CCOc1cc(S(=O)(=O)NCc2ccc3c(c2)OCO3)c(C)cc1C	-6%	-2%	i	?	i	-3%	0.0%	-0.4%
O=C(NCCN1CCOCC1)c1cc2ccccc2[nH]1	-3%	-2%	i	i	i	-2%	-1.8%	-1.6%
CN(Cc1nc(-c2ccccn2)no1)S(=O)(=O)c1ccc(Br)cc1	2%	-1%	i	?	i	1%	-1.3%	-0.4%
CCN[C@@H]1C[C@H](N)[C@H](O[C@H]2OC(CN)=CC[C@H]2N)[C@@H](O)[C@H]1O[C@H]1OC[C@@](C)(O)[C@@H](NC)[C@@H]1O	-3%[17.1 µM]	-3%[25.7 µM]	2.4e-08M*	i	i	0%[25.7 µM]	-0.1%[34.4 µM]	-2.7%[34.4 µM]
CC(=O)[C@@]1(O)CC[C@H]2[C@@H]3C[C@H](C)C4=CC(=O)C=C[C@]4(C)[C@@]3(F)[C@@H](O)C[C@@]21C	nt	nt	?	i	i	nt	nt	nt
COC(=O)[C@H]1[C@@H]2C[C@@H]3c4[nH]c5ccccc5c4CCN3C[C@H]2CC[C@H]1O	nt	0%	nt	nt	nt	-1%	-1.8%	-0.8%
CCCC1O[C@@H]2C[C@H]3[C@@H]4CCC5=CC(=O)C=C[C@]5(C)[C@H]4[C@@H](O)C[C@]3(C)[C@]2(C(=O)CO)O1 (stereo partly specified)	23%	1%	i	i	i	3%	-1.0%	-1.6%
CC(=O)OCC(=O)[C@@]1(O)CC[C@H]2[C@@H]3CCC4=CC(=O)CC[C@]4(C)[C@H]3C(=O)C[C@@]21C	4%	-5%	i	i	i	0%	-2.1%	-3.2%
C[C@@H]1[C@H](C)CC[C@@]2(C(=O)O)CC[C@]3(C)C(=CC[C@H]4[C@@]5(C)CC[C@@H](O)C(C)(C)[C@@H]5CC[C@@]43C)[C@@H]12	-4%[17.1 µM]	0%[25.7 µM]	?	i	i	2%[25.7 µM]	1.2%[34.4 µM]	-1.7%[34.4 µM]
O=S(=O)(Nc1cccc(C(F)(F)F)c1)c1cnc[nH]1	5%	0%	i	?	i	0%	0.2%	-1.1%
CC(C)NC(=O)N(O)C1N(Cc2ccc3c(c2)OCO3)C(=S)SC1(C)C (stereo unspecified)	11%	0%	i	i	i	0%	-1.5%	-2.3%
CC12CCC3c4ccc(O)cc4CCC3C1CCC2=O (stereo unspecified)	nt	-1%	nt	nt	nt	0%	-0.1%	-1.5%
COc1cc2nc(N(C)CCCNC(=O)[C@@H]3CCCO3)nc(N)c2cc1OC	7%[17.1 µM]	-7%[25.7 µM]	i	?	i	2%[25.7 µM]	0.5%[34.4 µM]	3.2%[34.4 µM]
C1CCN2CC3CC(CN4CCCC[C@@H]34)C2C1 (stereo partly specified)	nt	1%	nt	nt	nt	0%	1.4%	-1.7%
COc1ccc(CNC(=O)c2noc3c2CCCC3)cc1	11%	1%	i	?	i	0%	-2.0%	3.0%
Cc1c2c(nc3c(C(=O)NC4CCCCC4C)cnn13)CCCC2 (stereo unspecified)	14%	-1%	?	i	i	-1%	0.2%	-1.0%
Cc1cccc(-c2nnc(-c3ccc(N)cc3)o2)c1	8%	1%	?	?	i	0%	0.3%	-6.1%
COc1ccc(/C(O)=C2\C(=O)C(=O)N(c3cc(C)on3)C2c2ccc(OC)c(OC)c2)cc1OC (stereo unspecified)	37%[activator]	-8%	i	?	i	-1%	0.0%	0.8%
C[C@H]1C[C@@H]2[C@H]([C@@H](O)C[C@@]3(C)[C@H]2CC[C@]3(O)C(=O)CO)[C@@]2(C)C=CC(=O)C=C12	nt	nt	?	i	i	nt	nt	nt
C=CCn1c(CCNC(=O)c2ccccc2F)nnc1SCC(=O)Nc1nc(C)cs1	11%	0%	?	i	i	-1%	-0.4%	2.8%
CC(OC(=O)c1cc(=O)[nH]c2ccccc12)c1ccccc1 (stereo unspecified)	19%	-6%	i	i	i	-10%	-1.4%	-1.4%
C[C@@H]1C[C@@H]2[C@H]3CCC4=CC(=O)C=C[C@]4(C)[C@]3(F)[C@@H](O)C[C@]2(C)[C@@]1(O)C(=O)CO	-3%[17.1 µM]	0%[25.7 µM]	i	i	i	-1%[25.7 µM]	-1.3%[34.4 µM]	0.7%[34.4 µM]
C=CCn1c(CCNC(=O)c2cccs2)nnc1SCC(=O)Nc1cccc(C(C)=O)c1	10%	-1%	i	i	i	0%	-1.0%	0.8%
C[C@]12C=CC(=O)C=C1CCC1C2C(O)C[C@]2(C)C1CC[C@]2(O)C(=O)CO (stereo partly specified)	-2%	2%	nt	nt	nt	0%	0.1%	-2.7%[3.08 µM]
CC(C)(C)c1cc(NC(=O)C2CCCO2)no1 (stereo unspecified)	-6%	-7%	i	i	i	-1%	-1.0%	-2.5%
CCOc1ccccc1-c1nc2c([nH]1)c(=O)n(C)c(=O)n2C	64%[activator]	-5%	?	i	i	-2%	-3.2%	1.2%
CCC(C)(C)n1nnnc1C(c1cccs1)N1CCc2ccccc21 (stereo unspecified)	-8%	-3%	i	?	i	-2%	-1.4%	-1.4%

# New compounds follow
mol	USP2a inhib	Casp1 inh	Fluorescein autfl	TexasRed autofl	Rhodamine autofl	Caspase-7 inhib	BRCT inh red	BRCT PPI green
CC(=O)Nc1cc2c(cc1NC(=O)c1cnccn1)OCCO2	-3%	0%	i	i	i	3%	-0.7%	-0.5%
Cc1ccccc1OCc1nc(-c2ccc(NC(=O)c3ccc4c(c3)OCO4)cc2)no1	22%	0%	i	i	i	-1%	-0.2%	-2.3%
CCC(C)NC(=O)c1cnn2c(C)c3c(nc12)CCCC3 (stereo unspecified)	-6%	1%	?	i	i	0%	-1.8%	1.4%
CC(C)(C)NCC(O)c1ccc(O)c(CO)c1 (stereo unspecified)	3%	4%	nt	nt	nt	0%	-1.2%	-5.1%
CC(C)C(C(=O)OCC(=O)c1ccc2c(c1)NC(=O)CO2)N1C(=O)c2ccccc2C1=O (stereo unspecified)	8%	1%	?	i	i	3%	0.6%	-3.3%
CCC(C)(C)n1nnnc1CN1CCN(c2nc3cc(OC)ccc3cc2C#N)CC1	21%	?	?	?	i	?	0.9%	5.1%
CCN(CCCNC(=O)C1CCN(S(=O)(=O)CC)CC1)c1cccc(C)c1	7%	0%	i	i	i	0%	0.9%	-0.3%
CCn1c(COc2ccc(Cl)cc2)nnc1SCC(=O)Nc1ccc2c(c1)OCCO2	9%	-1%	?	i	i	-5%	0.0%	-0.3%
CCOc1ccc(C=NC23CN4CN(CN(C4)C2)C3)cc1	-3%	-4%	i	i	i	-8%	-1.2%	-0.3%
CC/C(=C(\c1ccccc1)c1ccc(OCCN(C)C)cc1)c1ccccc1	8%	-4%	?	?	i	-1%	-0.2%	-1.4%[3.08 µM]
COc1ccc(-c2cn3c(C)c(C(=O)Nc4cc(NC(C)=O)ccc4OC)sc3n2)cc1	25%	?	?	i	i	-26%	-0.8%	0.5%
CC1=C(/C=C/C(C)=C/C=C/C(C)=C\C(=O)O)C(C)(C)CCC1	-5%	1%	nt	nt	nt	-2%	0.5%	0.8%[3.08 µM]
Cc1nn(-c2ccccc2)c2[nH]c(=O)c(CNCc3ccc4c(c3)OCO4)cc12	6%	-13%	?	?	i	-13%	-1.8%	3.4%
Cn1c(=O)n(CC(=O)N2CCN(c3nnc(-c4ccccc4)c4ccccc34)CC2)c2ccccc21	7%	-2%	i	i	i	-3%	1.7%	-2.3%
COC(=O)C1C(O)CC[C@@H]2CN3CCc4c([nH]c5ccccc45)C3C[C@@H]12 (stereo partly specified)	-5%&-1%	0%&0%	nt	nt	nt	-1%&-1%	-0.8%&0.3%	0.7%
COc1cc(C)c(Cl)c(C)c1S(=O)(=O)NCc1ccc2c(c1)OCO2	4%	0%	i	?	i	-2%	0.1%	3.0%
NCCCC[C@H](N[C@@H](CCc1ccccc1)C(=O)O)C(=O)N1CCC[C@H]1C(=O)O	-2%[17.1 µM]	-1%[25.7 µM]	i	i	i	-1%[25.7 µM]	-1.5%[34.4 µM]	-0.5%[34.4 µM]
Clc1ccc2c(c1)C(N1CCNCC1)=Nc1ccccc1O2	36%[activator]	-2%	?	?	i	1%	-1.2%	-1.8%
Cc1ccc(NC(=O)Cn2nnc(C(=O)NCc3cccs3)c2N)cc1	-17%	1%	i	i	i	1%	-2.5%	0.6%
CC1(C)CC(=O)c2cc(OCC(=O)NCCCN3CCN(c4ccc(F)cc4)CC3)ccc2O1	16%	-10%	i	i	i	-6%	-0.7%	-0.2%
COc1ccc(-c2nn(C)c3sc(C(=O)NCc4ccco4)cc23)cc1OC	-23%	-4%	i	i	i	-3%	0.7%	-0.8%
CSc1ccc2c(c1)C(N1CCN(C)CC1)Cc1ccccc1S2 (stereo unspecified)	7%	1%	nt	nt	nt	-2%	2.1%	-0.4%

# Fetched one by one from the entries so far, 5 records:
mol	USP2a inhib	Casp1 inh	Fluorescein autfl	TexasRed autofl	Rhodamine autofl	Caspase-7 inhib	BRCT inh red	BRCT PPI green
COc1ccc(/C(O)=C2\C(=O)C(=O)N(c3cc(C)on3)C2c2ccc(OC)c(OC)c2)cc1OC (stereo unspecified)	37%[activator]	-8%	i	?	i	-1%	0.0%	0.8%
CC(OC(=O)c1cc(=O)[nH]c2ccccc12)c1ccccc1 (stereo unspecified)	19%	-6%	i	i	i	-10%	-1.4%	-1.4%
COc1ccc(-c2cn3c(C)c(C(=O)Nc4cc(NC(C)=O)ccc4OC)sc3n2)cc1	25%	?	?	i	i	-26%	-0.8%	0.5%
CC/C(=C(\c1ccccc1)c1ccc(OCCN(C)C)cc1)c1ccccc1	8%	-4%	?	?	i	-1%	-0.2%	-1.4%[3.08 µM]
Cc1ccccc1OCc1nc(-c2ccc(NC(=O)c3ccc4c(c3)OCO4)cc2)no1	22%	0%	i	i	i	-1%	-0.2%	-2.3%
